A488 autofl – qHTS Assay for Spectroscopic Profiling in A488 Spectral Region; 59,000 tested, 0.1% active; max dye equivalency, M; compound autofluorescence, A488 spectral region, dye equivalency; stronger effect = higher value; active = above 10 nM dye equivalent; inconclusive = 1 to 10 nM; inactive = 1 nM or less; about half of its hits are not listed in these tables;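 also: highest value over a series up to 38 µM; compound alone in buffer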
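Compound autofluorescence was read in 100 mM Tris pH 8.0 after 15 min at room temperature, ex 480 nm/em 540 nm. Intensities were converted to A488 dye-equivalent concentration using an on-plate six-point A488 standard curve.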
TSHR agonist – qHTS Assay for Agonists of the Thyroid Stimulating Hormone Receptor; 73,000 tested, 0.48% active; Potency, µM (series often up to 57.1 µM), inactives show at the highest dose activation, hits mostly activators; HEK293-CNG-TSHR cells (CNG channel as cAMP sensor), membrane potential dye, cAMP; active = well fitted activation curve of enough size with the parental cells flat; inconclusive = any curve in the parental cells; inactive = parental cells flat and receptor cells flat or falling; also: potency is read from the fitted curve at half-maximal effect; % of control where 0% means no effect; weak receptor curves with flat parental cells got no call and are not listed
Target sequence (P16473 whole entry, looked up): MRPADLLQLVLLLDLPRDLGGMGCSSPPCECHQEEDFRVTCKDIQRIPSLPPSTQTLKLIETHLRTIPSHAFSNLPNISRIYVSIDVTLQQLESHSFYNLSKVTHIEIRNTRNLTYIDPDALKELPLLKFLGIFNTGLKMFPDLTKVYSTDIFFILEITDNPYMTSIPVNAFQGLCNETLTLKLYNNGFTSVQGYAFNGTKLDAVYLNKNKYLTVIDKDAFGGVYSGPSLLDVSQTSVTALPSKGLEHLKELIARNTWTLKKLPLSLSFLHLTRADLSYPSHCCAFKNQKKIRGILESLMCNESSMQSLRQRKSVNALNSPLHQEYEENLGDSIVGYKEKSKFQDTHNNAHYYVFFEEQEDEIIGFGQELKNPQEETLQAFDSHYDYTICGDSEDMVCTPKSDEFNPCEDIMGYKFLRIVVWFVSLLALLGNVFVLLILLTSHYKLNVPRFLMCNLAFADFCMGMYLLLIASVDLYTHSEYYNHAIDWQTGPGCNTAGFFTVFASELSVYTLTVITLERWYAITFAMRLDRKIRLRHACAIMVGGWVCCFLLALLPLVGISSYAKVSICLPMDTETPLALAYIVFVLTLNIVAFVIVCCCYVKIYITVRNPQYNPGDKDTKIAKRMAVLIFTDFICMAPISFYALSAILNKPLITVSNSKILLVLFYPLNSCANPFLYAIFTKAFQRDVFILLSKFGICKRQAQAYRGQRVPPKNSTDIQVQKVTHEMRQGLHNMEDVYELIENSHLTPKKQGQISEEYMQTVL
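HEK 293 cells stably expressing TSHR and a cAMP-gated CNG channel; parental CNG-only cells as counterscreen. Cells preloaded 60 min with membrane potential dye plus 100 uM RO 20-1724, then compound 30 min; fluorescence read at 590 nm.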
AID923 – qHTS Assay for Allosteric/Competitive Inhibitors of Caspase-1: Spectroscopic Profiling in AFC Spectral Region; 75,000 tested, 1.1% active; Potency, µM (series often up to 57.5 µM), for the others: at the highest dose fluorescence increase, usual class: activators; compound fluorescence, AFC spectral region (405/520 nm); almost no hit is shown here; AID 923, 2007; active = well fitted activation curve with a large enough effect; inconclusive = small, poorly fitted or top-dose-only effect;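 also: potency is read from the fitted curve at half-maximal effect; 0% is about no effect; scaled to a free AFC standard on each plate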
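Compound autofluorescence profiled at 405 nm ex/520 nm em during kinetic caspase 1 run (50 nM enzyme, 5 uM Ac-WEHD-AFC, HEPES pH 7.5, 10 mM DTT). Titration up to 57 uM; baseline from regression intercept, normalized to AFC standard curve.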
Resorufin fluor – qHTS Assay for Spectroscopic Profiling in Resorufin Spectral Region | Compound fluorescence, resorufin region 547/598 nm, buffer; stronger effect = higher value | AID 588, 2007 | 59,000 tested, 0.04% active | max dye-equivalent concentration, M; active = above 10 nM dye equivalent; inconclusive = 1 to 10 nM; inactive = 1 nM or less; a few of its hits are not listed in these tables; also: highest value over a series up to 38 µM
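Compounds in 100 mM Tris, pH 8.0, incubated 15 min at room temperature, then fluorescence read at 547 nm excitation/598 nm emission. Signal converted to dye-equivalent concentration via an on-plate six-point resorufin standard curve, per compound concentration.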
A647 autofl – qHTS Assay for Spectroscopic Profiling in A647 Spectral Region; 59,000 tested, under 10 active; Compound fluorescence, A647 channel (570/671 nm), Tris buffer; max dye-equivalent concentration, M; active means above 1 µM dye equivalent; inconclusive means 0.1 to 1 µM; inactive means 0.1 µM or less;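 also: values scaled relative to a standard on each plate; highest value over a series up to 38 µM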
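Tris 100 mM pH 8.0; cpd + A647 stds pin-transferred; 15 min RT; CCD imager, ex 570/em 671. Output = A647-equivalent conc. per cpd conc.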
* hit, by the source's call; i = inactive; ? = inconclusive; / = no result given; & = joins results of further samples; [ ] = another dose, or the depositor's remark.

SMILES | A488 autofl | TSHR agonist | AID923 | Resorufin fluor | A647 autofl
Cc1ccc(-c2noc(CSc3nnnn3-c3ccccc3)n2)cc1 | / | ? | 0.6% | / | /
CC1CCCCC1NC(=O)CCCc1nc2ccccc2c(=O)[nH]1 (centres undefined) | i | -1% | 1.3% | i | 1e-09
O=C(c1cccs1)N1CCN(Cc2ccc3c(c2)OCO3)CC1 | / | 3% | 2.2% | / | /
NC(=O)C1(N2CCCCC2)CCN(C(=O)c2ccc(-n3cnnn3)cc2)CC1 | i | -4% | -1.3% | i | 1e-09
O=C(NCc1cccs1)c1nc2c(nnn2Cc2ccc(F)cc2)c(=O)[nH]1 | i | 3% | -0.4% | i | 1e-09
CCCCNC(=O)CS(=O)Cc1nc(-c2cccc(Cl)c2)oc1C (centres undefined) | / | 20% | 0.6% | / | /
CCn1c(CNC(=O)c2cccc(C)c2)nc2ccccc21 | / | -3% | -0.4% | / | /
COc1cc(Cl)c(C)cc1NC(=O)CSc1nnc(-c2ccccn2)n1Cc1ccco1 | i | 20% | 2.2% | i | 2.5e-08
O=C(Nc1nc(-c2cccs2)cs1)c1ccc(S(=O)(=O)N2CCCC2)cc1 | i | 26% | 10% | i | 7.9e-09
Cn1ncc(N=Cc2ccccc2O)c1C(=O)Nc1ccccc1 | i | / | / | i | 7.6e-08
CCC1CCCCN1C(=O)COC(=O)c1ccc(S(=O)(=O)N2CCOCC2)cc1 (centres undefined) | i | 1% | 0.0% | i | 1.1e-09
Cc1ccc(S(=O)(=O)Nc2ccc(S(=O)(=O)N3CCCC3)cc2)cc1 | i | 1% | -1.9% | i | 3.1e-09
Cc1cc(=O)oc2cc(OCC(=O)OCC(=O)N3CCc4ccccc43)ccc12 | i | 4% | 1.6% | i | 1e-09
O=S(=O)(NCCSc1nnnn1-c1ccccc1)c1cccs1 | i | 6% | -1.0% | i | 3.9e-08
CCc1nnc(NC(=O)CSc2nnc(CNc3cccc(C)c3)n2-c2ccccc2)s1 | i | -4% | 1.4% | i | 1e-09
CC(C)c1nc2oc3c(NCC4CCCO4)ncnc3c2c2c1CCC2 (centres undefined) | i | 3% | -0.8% | i | 3.9e-08
O=C(Nc1cccnc1)c1cc2c(ccc3ccccc32)o1 | / | 3% | 0.2% | / | /
CC(C)(C)c1cccc(/C=N/O)c1O | i | / | / | i | 9.6e-08
COc1ccc2c(c1)cc1n2CCN2CCCN=C12 | i | 0% | 0.8% | i | 2.1e-09
COc1ccc(-c2noc(COc3ccc4c(c3)OCO4)n2)cc1 | i | ? | -0.8% | i | 5.8e-09
COc1ccc(CN(C(=O)CNC(=O)c2ccco2)C(C(=O)NC2CCCC2)c2ccco2)cc1 (centres undefined) | i | 10% | -1.1% | i | 1.6e-08
COc1ccc(C2C(C(=O)c3sc(C)nc3C)=C(O)C(=O)N2CCN2CCOCC2)cc1 (centres undefined) | i | 1% | 1.8% | i | 1.5e-08
Cc1ccc2c(CC(=O)OCn3nnc4ccccc4c3=O)coc2c1 | i | ? | 0.0% | i | 3.2e-08
CC1CN(C(=O)c2cc(F)c(F)cc2Cl)CC(C)O1 (centres undefined) | i | ? | 2.6% | i | 1e-09
N#CNC(N)=Nc1cccc(Cl)c1 | i | -14% | -2.0% | i | 6.4e-09
COc1ccc(-c2noc(CN3CCOCC3)n2)cc1OC | i | -13% | -5.5% | i | 1e-09
Cn1c(=O)c(C(=O)NC2CCCCCCC2)c(O)c2ccccc21 | / | -2% | 3.2% | / | /
CC(=O)Oc1c(S(=O)(=O)c2ccc(C)cc2)c(C)nn1C(C)(C)C | i | 6% | 1.1% | i | 2.3e-08
CC1=C(C(=O)OC2CCCCC2)C(c2cccnc2)n2nnnc2N1 (centres undefined) | i | -2% | 2.9% | i | 2.5e-08
Cc1oc(C)c2c(=O)ccc3c(c12)OC(N)=C(C#N)C3c1ccc(F)cc1 (centres undefined) | i | 6% | 13% | i | 1e-09
COc1cccc(N=Cc2ccc(O)cc2O)c1 | / | -1% | -1.0% | / | /
CCCCCCCCCCCCC(=O)N1CCCC[C@H]1CNC(=O)[C@@H](N)CCCCN | / | 13% | 1.7% | / | /
O=C(NC1CCS(=O)(=O)C1)c1cn(-c2ccccc2)nc1-c1ccccc1 (centres undefined) | i | 3% | -1.4% | i | 3.6e-08
COC(=O)CC1NCCNC1=O (centres undefined) | i | 0% | 0.7% | i | 3.5e-08
CCCc1n[nH]c2c1C(=O)C(C(=O)OC)C(C)(C)C2 (centres undefined) | / | -5% | 3.6% | / | /
CSc1nnc2n(C3CCCCC3)c(=O)c3c4c(sc3n12)CCCC4 | i | / | / | i | 1e-09
COc1cccc(-c2cc(C(=O)Nc3cc(C)on3)no2)c1 | i | 14% | 1.0% | i | 3.9e-09
CSC1=NCCN1C(=O)c1ccc(S(=O)(=O)N2CCCCC2)cc1 | / | 1% | 1.2% | / | /
O=c1[nH]c2c(n(C3CCCCC3)c1=O)CCC2 | i | 0% | -0.4% | i | 2.5e-08
COC(=O)c1[nH]c2cc(OC)ccc2c1NC(=O)CCN1CCCCC1 | i | 2% | 0.8% | i | 3.7e-08
Cc1nc(N2CCN(Cc3ccc4c(c3)OCO4)CC2)c2oc3ccccc3c2n1 | i | ? | 0.0% | i | 2e-08
CCOC(=O)c1nnn(-c2nonc2N)c1CNc1ccc(C)c(Br)c1 | i | 11%[11.4 µM] | -0.7% | i | 5.7e-09
CC(=O)c1ccc(OCC(O)CN2C(C)(C)CC(O)CC2(C)C)cc1 (centres undefined) | / | -11% | -1.7% | / | /
Cc1cc(NC(=O)CCCN2C(=O)c3cccnc3C2=O)no1 | i | -1% | 1.4% | i | 1e-09
Cc1ccc2c(CC(=O)Nc3c(C)n(C)n(-c4ccccc4)c3=O)coc2c1 | i | -2% | 0.4% | i | 1e-09

Molecules shown so far that contain a tert-butyl group (2):
SMILES | A488 autofl | TSHR agonist | AID923 | Resorufin fluor | A647 autofl
CC(C)(C)c1cccc(/C=N/O)c1O | i | / | / | i | 9.6e-08
CC(=O)Oc1c(S(=O)(=O)c2ccc(C)cc2)c(C)nn1C(C)(C)C | i | 6% | 1.1% | i | 2.3e-08

Reprinted at random: 3 compounds from above
SMILES | A488 autofl | TSHR agonist | AID923 | Resorufin fluor | A647 autofl
Cc1cc(NC(=O)CCCN2C(=O)c3cccnc3C2=O)no1 | i | -1% | 1.4% | i | 1e-09
CCCCCCCCCCCCC(=O)N1CCCC[C@H]1CNC(=O)[C@@H](N)CCCCN | / | 13% | 1.7% | / | /
COc1cccc(-c2cc(C(=O)Nc3cc(C)on3)no2)c1 | i | 14% | 1.0% | i | 3.9e-09

Following part.
SMILES | A488 autofl | TSHR agonist | AID923 | Resorufin fluor | A647 autofl
COc1ccc2[nH]c3c(c2c1)CCn1c-3nc2ccccc2c1=O | i | -6% | 8.8% | i | 1e-09
Cn1cccc1C(=O)N1CCC[C@@]2(CCN(c3ncccn3)C2)C1 | i | 7% | 0.7% | i | 1.5e-08
O=C(COc1ccc(Cl)cc1)NCc1nnc(SCC(=O)NC2CCCCC2)o1 | i | 8%[11.4 µM] | 0.8% | i | 1e-09
Cc1cc(C)nc(N2CCCC(C(=O)NCc3cccc(C(F)(F)F)c3)C2)n1 (centres undefined) | i | -4% | -0.7% | i | 2.9e-08
Cn1nc(C(=O)Nc2cccnc2)c2ccccc2c1=O | i | -2% | 0.1% | i | 1e-09
O=C(Nc1c(C(=O)N2CCCCC2)cnn1-c1ccccc1)c1ccco1 | / | -4% | 0.4% | / | /
Cc1cccc(Cn2c(NCC(C)O)nc3c2c(=O)n(C)c(=O)n3C)c1 (centres undefined) | i | 12% | -1.1% | i | 1.4e-08
COc1ccccc1C1SCCN1S(=O)(=O)c1cccc(C(F)(F)F)c1 (centres undefined) | i | ? | 1.3% | i | 1.9e-08
CCC1Oc2ccc(C)cc2N(CC(=O)NCCCN2CCN(Cc3ccccc3)CC2)C1=O (centres undefined) | i | ? | -0.5% | i | 4e-08
Cc1nc(NC2=NCN(CCc3ccccc3)CN2)nc2ccccc12 | i | ? | 0.1% | i | 3.6e-08
COC(=O)c1c(C(=O)OC)c2n(c1C)Cc1ccccc1C2 | / | 4% | -1.0% | / | /
CCN1CSC(=S)N(Cc2ccc(OC)cc2)C1 | i | ? | 1.3% | i | 1e-09
O=C(CCNC(=O)c1ccc(Br)o1)NCc1ccc(Cl)cc1 | i | 4% | -0.3% | i | 1e-09
CCN(CC)CCn1c(NCc2cccc(OC)c2)nc2ccccc21 | i | 14% | 0.7% | i | 1.2e-09
CO[C@H]1/C=C/O[C@@]2(C)Oc3c(C)c(O)c4c(O)c(c5c(c4c3C2=O)NC2(CCN(CC(C)C)CC2)N=5)=NC(=O)/C(C)=C\C=C\[C@H](C)[C@H](O)[C@@H](C)[C@@H](O)[C@@H](C)[C@H](OC(C)=O)[C@@H]1C | / | ? | -2.3% | / | /

3 entries from above in a different format:
Molecule	A488 autofl	TSHR agonist	AID923	Resorufin fluor	A647 autofl
COC(=O)c1c(C(=O)OC)c2n(c1C)Cc1ccccc1C2	/	4%	-1.0%	/	/
CCN1CSC(=S)N(Cc2ccc(OC)cc2)C1	i	?	1.3%	i	1e-09
CCC1Oc2ccc(C)cc2N(CC(=O)NCCCN2CCN(Cc3ccccc3)CC2)C1=O (centres undefined)	i	?	-0.5%	i	4e-08

Other structures.
SMILES | A488 autofl | TSHR agonist | AID923 | Resorufin fluor | A647 autofl
Cc1c(NC(=O)C(C#N)=C2CCCCC2)c(=O)n(-c2ccccc2)n1C | i | 24% | 0.4% | i | 1e-09
CCC1Oc2ccc(C)cc2N(CC(=O)NCCCN2CCCCC2CC)C1=O (centres undefined) | i | 17% | -1.6% | i | 8e-09
O=C(CSc1nnc(-c2cccs2)n1-c1ccccc1)c1ccc2c(c1)OCCO2 | i | ? | -1.0% | i | 3.1e-08
COc1ccc(OC)c(S(=O)(=O)NC2CCN(Cc3ccccc3)CC2)c1 | i | 9% | 0.0% | i | 1e-09
COc1ccc(C(c2nnnn2C2CCCC2)N2CCc3ccccc3C2)cc1OC (centres undefined) | i | ? | 0.4% | i | 3.9e-08
Cc1ccc(NC(=O)c2ccccc2O)cc1 | i | -4% | -0.7% | i | 1e-09
O=c1[nH]c2ccccc2n1CCCN1CCN(C(c2ccccc2)c2ccccc2)CC1 | i | -28% | -1.2% | i | 4.1e-08&1e-09
CCCNc1nc2c(c(=O)[nH]c(=O)n2C)n1CCC(C)C | i | 4% | 1.2% | i | 4.7e-08
COc1cc2c(cc1OC)C(C(=O)NC1CC1)C1c3ccccc3CCN1C2=O (centres undefined) | / | 2% | 4.2% | / | /
Cc1noc(C)c1C(=O)N1CCC2(CC1)CCN(c1ccccn1)CC2 | i | 4% | -0.8% | i | 2.5e-08
CC(C)COC(=O)c1cc(-c2ccc(/C=N/n3cnnc3)o2)ccc1Cl | i | 3% | -2.0% | i | 1e-09
COc1ccc(CNC(=O)c2ccc(N3CCCC3=O)cc2)cc1 | i | 4% | 2.8% | i | 8.2e-09
COc1cccc2cc(C(=O)N3CCN(C(=O)c4ccco4)CC3)c(=O)oc12 | i | -4% | 2.6% | i | 2.1e-08
CCOC(=O)c1c(NC(=O)CSc2nnc(-c3cccnc3)o2)sc(C(C)=O)c1C | i | ? | 0.9% | i | 2.1e-09
Cc1cc(NC(=O)CN2CCN(c3ccccc3O)CC2)no1 | i | 13% | 0.7% | i | 3.8e-08
O=C(CSc1nnc(-c2cccnc2)n1-c1ccccc1)NCc1ccc2c(c1)OCO2 | i | 4% | -0.1% | i | 1.3e-08
CCc1cc(N2CCOCC2)cc2c1[nH]c1ccccc12 | i | -19% | 0.9% | i | 1e-09
Cc1c(Br)cc(C(=O)NCc2ccco2)c(C)c1C | i | ? | 4.1% | i | 1.2e-08

Screening results: PubChem BioAssay, National Center for Advancing Translational Sciences (NCATS)

The list is partial; count on the stated rates, not on these rows.
